Screening data from PubChem BioAssay.
Rango release inh: inhibition of RanGTP-driven Rango-importin beta dissociation. AID 540253. Biochemical FRET Rango-importin beta, RanGTP-induced dissociation. Potency, µM (top dose mostly 46.1 µM), for the others: top-dose activity change, negative = inhibition. 340,000 compounds, 0.071% hits; active means falling FRET ratio curve, often poorly fitted, with flat reads before Ran was added; inconclusive means other falling curves, or compound fluorescence or quenching; inactive means flat or rising ratio curve;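 also: potency is read from the fitted curve at half-maximal effect; % of control where 0% means no effect; nearly all actives have a fitted effect of over 45% in size; -100% = wells without RanGTP and RCC1; the record marks most hits as doubtful in a second field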
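Rango FRET biosensor (snurportin-1 IBB flanked by N-terminal EYFP and C-terminal CFP10) at 0.1 uM, with 0.25 uM importin beta in PBS, 1mM DTT, 0.02% Tween-20, 0.1% BSA. 0.6 uM Ran, 2mM GTP and 0.2 uM RCC1 were then added for 45 min at room temperature. Inhibition read as loss of FRET rise.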
miR-21 FLuc: raises the signal of a miR-21 reporter. HeLa miR-21 FLuc reporter, luciferase, 48 h. Potency, µM (highest dose often 38.3 µM), for inactives: at the top dose reporter change, positive = more light. 340,000 tested, under 10 active. AID 2288; active = well fitted rising curve with a large enough effect; inconclusive = small, poorly fitted or top-dose-only effect; inactive = no such curve, though single readings can be large or run the other way;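 also: % of control where 0% means no effect; miR-21 action dims this reporter so a rising signal means less miR-21 action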
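HeLa miR-21-FLuc reporter line, endogenous miR-21; 2000 cells/well in DMEM/10% FBS; compound titration up to ~40uM final, 48 h, 37 degree Celsius; luciferase detection reagent, 15 min lysis, CCD luminescence.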
GLA inh pH 4.5: alpha-galactosidase A (human) inhibition, pH 4.5 | P06280 | purified enzyme, 4-MU-alpha-Gal fluorescence, pH 4.5 | activity change, negative = inhibition, % at 105 µM | 230,000 tested, under 10 active | AID 1467; inconclusive = small, poorly fitted or top-dose-only inhibition, or a rising curve; inactive = flat fitted curve, though single readings scatter; no compound was filed as active;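 also: 0% = full activity with enzyme and -100% = basal without enzyme; dose as in the result columns while the protocol names 77 µM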
Rango-impB inh: inhibitors of Rango-importin beta complex formation; Q14974; Rango CFP/YFP FRET sensor + importin beta, 45 min; 340,000 compounds, 0.031% hits; Potency, µM (titrated, usually from 92.2 µM), without a hit: at the highest dose inhibition of complex formation; active = rising FRET ratio curve, often small or poorly fitted; inconclusive = mostly compound fluorescence or quenching in the first reads; inactive = flat curves in all reads;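 also: potency is read from the fitted curve at half-maximal effect; 0% = DMSO wells and 100% = buffer wells lacking importin beta; nearly all actives have a fitted effect of over 15% in size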
Target sequence (Q14974 whole entry, looked up): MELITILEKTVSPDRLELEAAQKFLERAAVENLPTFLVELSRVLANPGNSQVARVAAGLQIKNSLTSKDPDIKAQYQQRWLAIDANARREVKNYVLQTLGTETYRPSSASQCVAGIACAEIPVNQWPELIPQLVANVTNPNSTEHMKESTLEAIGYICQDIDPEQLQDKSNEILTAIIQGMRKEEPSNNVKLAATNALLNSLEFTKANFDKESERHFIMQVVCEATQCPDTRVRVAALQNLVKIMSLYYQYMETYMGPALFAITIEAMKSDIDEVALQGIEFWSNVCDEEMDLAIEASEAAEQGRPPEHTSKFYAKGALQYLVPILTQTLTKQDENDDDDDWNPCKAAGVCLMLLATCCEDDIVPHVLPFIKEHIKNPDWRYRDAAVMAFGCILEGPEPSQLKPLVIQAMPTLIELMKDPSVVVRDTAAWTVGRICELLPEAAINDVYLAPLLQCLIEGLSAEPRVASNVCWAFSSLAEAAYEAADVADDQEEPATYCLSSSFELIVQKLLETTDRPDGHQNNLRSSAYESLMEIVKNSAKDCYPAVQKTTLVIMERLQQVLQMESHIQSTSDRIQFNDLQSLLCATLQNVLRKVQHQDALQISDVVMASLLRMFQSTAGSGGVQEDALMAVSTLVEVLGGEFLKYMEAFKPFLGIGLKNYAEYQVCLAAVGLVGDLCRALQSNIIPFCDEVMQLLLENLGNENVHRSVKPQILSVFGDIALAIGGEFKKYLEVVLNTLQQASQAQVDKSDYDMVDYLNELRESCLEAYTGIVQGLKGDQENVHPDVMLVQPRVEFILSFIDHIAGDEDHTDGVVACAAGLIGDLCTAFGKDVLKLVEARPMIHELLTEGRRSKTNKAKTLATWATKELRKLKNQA
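FRET biosensor (snurportin 1 IBB flanked by EYFP and cerulean), 50 nM, with compound 5 min, then 0.125 microM importin beta in PBS, 1 mM DTT, 0.02% Tween-20, 0.1% BSA. CFP/YFP ratio read after 45 min at room temperature; pre-read flags interference.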
* marks the source's active call; other numbers are inactive results; ? = inconclusive; nt = no result given; & = joins results of further samples.

miR-21 FLuc	GLA inh pH 4.5	Rango release inh	Rango-impB inh	SMILES
-10%	nt	0%	1.7%	COC(=O)c1cccc(NC(=O)CN2CCc3ccccc3C2)c1
nt	nt	0%	-3.0%	Cc1ccc(N2CC(C(=O)N3CCC4(CC3)CC(=O)c3ccccc3O4)CC2=O)cc1C (centres undefined)
10%	?	?	?	CC(C)OC(=O)c1c(N)n(CCCN2CCOCC2)c2nc3ccccc3nc12
-10%	1	8%	1.9%	Cc1ccc(NC(=O)CN(C)S(=O)(=O)c2cccc3cccnc23)cc1
nt	nt	-4%	0.4%	CCC(C)C(N)C1=NC(C(=O)N[C@@H](CC(C)C)C(=O)N[C@H](CCC(=O)[O-])C(=O)N[C@H](C(=O)N[C@H]2CCCCNC(=O)[C@H](CC(N)=O)NC(=O)[C@@H](CC(=O)[O-])NC(=O)[C@H](Cc3cnc[nH]3)NC(=O)[C@@H](Cc3ccccc3)NC(=O)[C@H]([C@@H](C)CC)NC(=O)[C@@H](CCCN)NC2=O)[C@@H](C)CC)CS1.[Zn+2] (some centres undefined)
8%	nt	1%	-0.8%	C[C@]12C(=O)N(c3cccc(F)c3)C(=O)N1[C@@H]1c3ccccc3OC[C@@H]1[C@H]2c1ccccc1
8%	nt	9%	-3.0%	Cc1ccccc1CN1CCN(CCCc2ccccc2)C(CCO)C1 (centres undefined)
-2%	-14	1%	2.4%	O=C(CCN1CCN(CCO)CC1)Nc1cccc(Br)c1
-2%	-10	nt	nt	CN(C=O)CP(=O)(O)CN1CCCCC1
-3%	nt	2%	0.7%	O=S(=O)(c1ccc(Cl)cc1)N1CCCc2ccccc21
5%	nt	8%	-1.3%	CC(C)(C)C(=O)CN1C(=O)NC(C)(Cc2ccc3c(c2)OCO3)C1=O (centres undefined)
-10%	nt	-8%	0.9%	CCCC(C)c1nc(C(N)=O)c2[nH]c(=O)n(-c3ccc(OC)cc3OC)c2n1 (centres undefined)
-3%	3	nt	nt	N#Cc1c(Cl)c(Cl)c2nnc(-c3ccc(Br)cc3)n2c1Cl
0%	nt	-10%	-1.6%	CCOc1ccccc1CN1CCNC(=O)C1CC(=O)NCCN1CCOC1=O (centres undefined)
-1%	nt	8%	2.1%	Cc1ccc(S(=O)(=O)N2CCOC2CNC(=O)C(=O)NCc2ccc(Cl)cc2)cc1 (centres undefined)
-1%	-7	16%	2.5%	COC(=O)c1cc(F)c(-n2cncn2)c(F)c1
0%	1	4%	1.9%	CCOC(=O)C1=C(O)C(=O)N(CCCn2ccnc2)C1c1ccc(C)cc1 (centres undefined)
10%	-6	30%	2.8%	O=C(Cc1ccc(F)cc1)N1CCN=C1SCc1cccc([N+](=O)[O-])c1
14%	nt	-19%	-0.2%	CC(=O)N1CCSc2ccc(S(=O)(=O)Nc3ccccc3C)cc21
3%	nt	0%	0.5%	CSc1ccc(S(=O)(=O)Nc2ccccc2C(=O)N2CCOCC2)cc1
nt	nt	-3%	-3.6%	COCCN(C(=O)C1CC(=O)N(Cc2ccc(C)cc2)C1)c1c(N)n(CC(C)C)c(=O)[nH]c1=O (centres undefined)
-19%	nt	27%	2.7%	CCCCn1c2ccc(F)cc2c2nnc(SCCN3CCOCC3)nc21
nt	nt	1%	0.5%	CN(CC(=O)Nc1cc(Cl)ccc1C#N)C1CCS(=O)(=O)C1 (centres undefined)
6%	nt	-6%	-2.1%	COc1ccc(NC(=O)C2CCC(=O)N2S(=O)(=O)c2ccc(C)cc2)cc1Cl (centres undefined)
-1%	-3	?	?	Oc1oc(-c2ccccc2)nc1C=Nc1cccc2ccccc12
-1%	5	-3%	-3.7%	O=C(O)CC(CC(=O)Nc1ccc(-n2ccc(C(F)(F)F)n2)cc1)c1ccccc1 (centres undefined)
-27%	nt	-8%	?	CC(=O)CSc1nc2c(c(=O)[nH]c(=O)n2C)n1CCCc1ccccc1
23%	-19	?	?	Cc1cc(/C=C2\SC(=Nc3ccccc3)NC2=O)c(C)n1-c1ccc(S(N)(=O)=O)cc1
1%	-3	1%	-8.0%	Cc1ccc(NS(=O)(=O)c2ccc(N/N=C/c3ccncc3)c([N+](=O)[O-])c2)c(C)c1
-7%	-13	3%	0.5%	Oc1c(CN2CCOCC2)cc(-c2ccccc2)cc1CN1CCOCC1
0%	-3	-1%	0.2%	Cc1ccc(S(=O)(=O)N2CCN(S(=O)(=O)c3ccc(C)cc3)C3OCCOC32)cc1 (centres undefined)
-14%	2	18%	0.7%	N#CNC(=Nc1ccccc1)SCc1ccc(C(=O)O)cc1
nt	nt	-2%	1.8%	O=C1COc2ccc(C(=O)COC(=O)CNS(=O)(=O)c3cccc(F)c3)cc2N1
1%	10	0%	-1.7%	O=C(Nc1ccc(C(=O)O)cc1)Nc1ccc(F)cc1F
-1%	4	11%	0.7%	CSCCC(NS(=O)(=O)c1ccc(F)cc1)C(=O)NCc1ccc(S(N)(=O)=O)cc1 (centres undefined)
2%	nt	-3%	3.3%	O=S(=O)(CCC1CCCCN1)c1ccccc1 (centres undefined)
-13%	2	0%	5.9%	CC(C)(C)n1ncc2c(=O)n(CC(=O)N3CCCCCC3)cnc21
1%	nt	-8%	0.1%	Cc1ccccc1-n1c(=O)n(Cc2ccc(C(=O)O)cc2)c(=O)c2[nH]cnc21
nt	nt	-6%	0.4%	CCOC(=O)[C@H]1[C@H]2COc3ccc(C)cc3[C@@H]2N2C(=O)c3cc(F)c(F)cc3NC(=O)[C@@]12C
-3%	-1	20%	0.3%	CCCN1CCC(NC(=O)Nc2ccc(F)cc2F)CC1
-14%	-9	7%	0.2%	Cc1cc2c(sc3c(C)ccc(C)c32)c(C)n1
-84%	-2	7%	0.0%	COc1ccc(NC(=O)c2ccc(-c3ccccc3Cl)o2)cc1
0%	-5	-21%	1.6%	CC1(C)CC(=O)C2=C(C1)OC(/N=C/N1CCCC1)=C(C#N)C2c1ccccc1 (centres undefined)
-11%	-3	38%	-3.6%	CSC1=N/C(=C\c2ccccc2Cl)C(=O)N1N(C)C
-27%	nt	-11%	-3.3%	COc1ccc(-c2noc(CN(C)Cc3ccccc3)n2)c(OC)c1OC
nt	nt	-13%	-4.0%	O=C(CSc1ccc(F)cc1)NCC1(N2CCOCC2)CCCCC1
9%	nt	?	-1.3%	COc1ccc(OC)c(C(C)NC(=S)NC2CCCCC2)c1 (centres undefined)
?	1	3%	-1.8%	Cc1ccc(C2CC(C(F)(F)F)n3nc(C(=O)NCc4c(C)nn(C)c4C)c(Cl)c3N2)cc1 (centres undefined)
4%	-11	-6%	0.1%	COC(=O)CSc1nnc(CNC(=O)c2cc(OC)cc(OC)c2)n1-c1ccc(F)cc1
8%	-1	6%	1.1%	Cc1cc2nc(-c3ccc(SCC(=O)N4CCOCC4)nc3)[nH]c2cc1C

Next structures:
miR-21 FLuc	GLA inh pH 4.5	Rango release inh	Rango-impB inh	SMILES
nt	nt	0%	2.1%	COC(=O)CCCCCN1C(=O)NC(C2CC2)C(C(=O)OCc2ccccc2)=C1C (centres undefined)
nt	nt	-3%	-0.8%	Cc1nc(-c2ccc(F)cc2)c(CC(=O)N(C)CC(=O)Nc2ccc(F)cc2)s1
-1%	-5	17%	2.5%	COc1ccccc1Nc1nc(-c2ccccc2O)nc2ccccc12
nt	nt	-2%	0.2%	O=S(=O)(Nc1ccc2nc(N3CCOCC3)sc2c1)c1ccc(Cl)cc1
0%	2	nt	nt	N#Cc1ccc(-c2nc3cc(C#N)c(C#N)cc3nc2-c2ccccc2)cc1C#N
-4%	3	-10%	-0.1%	CCC(C)(C)NC(=O)C(c1cccs1)N(CC1CCCO1)C(=O)Cn1nnc2ccccc21 (centres undefined)
0%	-8	-3%	-4.5%	CCCCn1nnnc1NCc1ccc(C)s1
nt	nt	-7%	-3.5%	CC(C)(Oc1ccc(Cl)cc1)C(=O)OCC(=O)N1CCN(c2ccccc2)CC1
6%	8	20%	-3.9%	Cc1ccc2cc(CCNC(=O)c3cc4ccccc4o3)c(=O)[nH]c2c1C
-1%	8	34%	1.4%	CCOC(=O)C1CCCN(C(=O)c2ccccc2SCCOC)C1 (centres undefined)
-5%	3	-5%	-1.4%	CN1Cc2cc(C(=O)c3ccccc3O)cnc2NC1=O
-1%	nt	-8%	0.6%	CCN1C(=O)[C@H]2[C@@H](c3ccc(Cl)cc3)N3C(=O)CN(CCOC)C(=O)[C@@]3(Cc3ccccc3)[C@H]2C1=O
5%	nt	4%	-0.5%	COC(=O)CCNC(=O)Cc1c(C)n(C(=O)c2ccc(Cl)cc2)c2ccc(OC)cc12
nt	nt	7%	0.7%	CC(Oc1ccc(Br)cc1)C(=O)Nc1ccc(N2CCOCC2)cc1N1CCOCC1 (centres undefined)
-5%	0	-5%	1.8%	N#CCOc1nc(N2CCCC2)nc(N2CCCC2)n1
28%	nt	6%	1.3%	Cc1ccccc1C(=O)N1CCN(c2ccc(NC(=S)NC(=O)c3ccco3)cc2)CC1
-2%&-2%	-16	nt	nt	Cc1ccc(C)c(NC(=O)Cn2c(=O)n(-c3ccc(CC(=O)NCC4CCCO4)cc3)c(=O)c3ccccc32)c1 (centres undefined)
1%	nt	7%	-1.3%	[N-]=[N+]=NC1CC(CO)OC1n1ccc(=O)[nH]c1=O (centres undefined)
-4%	4	1%	1.0%	COc1ccc(C=O)cc1COc1ccc(C)cc1[N+](=O)[O-]
-1%	3	-16%	0.0%	CCOc1ccc(-c2nc[nH]c2[N+](=O)[O-])cc1
-1%	-6	19%	-0.1%	CCCc1nnc(SCC(=O)N2CCCCC2)n1CCCOC
15%	2	-11%	-0.9%	COc1cccc(CNCC(O)(c2ccc(Cl)cc2)c2ccc(Cl)cc2)c1
nt	nt	1%	0.1%	Cc1ccc(NC(=O)COC(=O)c2ccc(Br)o2)cc1S(=O)(=O)N1CCCCC1
?	-9	27%	1.1%	O=C(Nc1ccc2ccccc2c1)N1CCCN(CCOc2ccccc2)CC1
nt	nt	25%	-2.4%	Cc1ccn2cc(C(=O)N3CCN(c4cnn(-c5ccccc5)c(=O)c4Cl)CC3)nc2c1

Single values from the results shown.
Under Rango-impB inh, `CC(Oc1ccc(Br)cc1)C(=O)Nc1ccc(N2CCOCC2)cc1N1CCOCC1` (centres undefined) reads 0.7%
Under Rango-impB inh, `[N-]=[N+]=NC1CC(CO)OC1n1ccc(=O)[nH]c1=O` (centres undefined) reads -1.3%

Going on with the list.
miR-21 FLuc	GLA inh pH 4.5	Rango release inh	Rango-impB inh	SMILES
?	-6	-3%	-0.3%	Cc1nnnn1/C(=C\c1ccccc1)C(=O)OCC(=O)N1CC2(C)CC1CC(C)(C)C2 (centres undefined)
2%	nt	8%	-0.4%	CCOC(=O)CN1C(=O)NC2(CCCc3ccccc32)C1=O (centres undefined)
-2%	2	2%	-9.3%	COCCNC(=O)Cn1nc(C(F)(F)F)c(Br)c1C
6%	-18	0%	?	COc1cc(NC(=O)Cc2c(C(=O)O)[nH]c3ccccc23)cc(OC)c1OC
-43%	-6	17%	0.4%	O=C(CSc1ccccc1)N1CCN(c2ccccc2)CC1

Record cards (already shown). Order of screens: miR-21 FLuc, GLA inh pH 4.5, Rango release inh, Rango-impB inh
`COC(=O)c1cccc(NC(=O)CN2CCc3ccccc3C2)c1` as listed: -10%, nt, 0%, 1.7%
`CCOC(=O)[C@H]1[C@H]2COc3ccc(C)cc3[C@@H]2N2C(=O)c3cc(F)c(F)cc3NC(=O)[C@@]12C` as listed: nt, nt, -6%, 0.4%
`CC(=O)N1CCSc2ccc(S(=O)(=O)Nc3ccccc3C)cc21` as listed: 14%, nt, -19%, -0.2%
`CCOC(=O)CN1C(=O)NC2(CCCc3ccccc32)C1=O` (centres undefined) as listed: 2%, nt, 8%, -0.4%
`O=C(CSc1ccc(F)cc1)NCC1(N2CCOCC2)CCCCC1` as listed: nt, nt, -13%, -4.0%

An excerpt, so the mix of outcomes need not match the whole.
